VDR inhibitor – inhibitors of human vitamin D receptor; VDR-SRC2-3 peptide fluorescence polarization, 2 h; Potency, µM, inactives show max response, negative = inhibition, actives largely listed as inhibitors; 400,000 tested, 0.93% active; AID 504847; active = well fitted inhibition curve with a large enough effect; inconclusive = small, poorly fitted or top-dose-only effect, or another doubt; inactive = no such curve, though single readings can be large or run the other way; also: series mostly up to about 120 µM
Target sequence (P11473 whole entry, looked up): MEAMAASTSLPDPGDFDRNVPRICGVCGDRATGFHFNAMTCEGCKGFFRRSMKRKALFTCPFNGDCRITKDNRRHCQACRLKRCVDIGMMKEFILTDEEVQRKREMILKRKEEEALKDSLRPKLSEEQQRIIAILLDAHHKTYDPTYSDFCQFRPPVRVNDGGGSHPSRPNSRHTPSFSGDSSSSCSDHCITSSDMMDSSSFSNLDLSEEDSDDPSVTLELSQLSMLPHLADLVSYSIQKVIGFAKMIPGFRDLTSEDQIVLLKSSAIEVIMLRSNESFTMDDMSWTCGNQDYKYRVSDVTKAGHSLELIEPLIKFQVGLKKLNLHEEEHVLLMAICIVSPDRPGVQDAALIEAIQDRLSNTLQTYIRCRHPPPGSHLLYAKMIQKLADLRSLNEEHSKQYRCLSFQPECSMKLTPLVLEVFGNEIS
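After 23 nl compound addition and a short centrifugation, plates sat for 2 hours at ambient temperature; polarization of fluorescence then indicated loss of VDR binding to peptide SRC2-3.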
The depositor's hits bear a star; ? = inconclusive; & = joins results of further samples. % is scaled to controls: 0 for no effect and ±100 for the full control effect; potency is read from the fitted curve at half-maximal effect. Some of the compounds tested; rates above refer to the full screens.

| mol | VDR inhibitor |
| --- | --- |
| COc1ccc(C(CC(=O)N2CCN(C)CC2)NC(=O)C(F)(F)F)cc1 (stereo not drawn) | -11% |
| COc1ccc(N2CCN(C(=O)CCN3C(=O)c4ccccc4S3(=O)=O)CC2)cc1 | 15% |
| CN(C)C(=S)NC(=O)c1cccc(Cl)c1 | -27% |
| CN(CC(=O)Nc1ccccc1Cl)CC(=O)c1c(N)n(Cc2ccccc2)c(=O)n(C)c1=O | 16% |
| CCOC(=O)C1CCCN(S(=O)(=O)c2cc(Br)cc3c2N(C(=O)C2CC2)CC3)C1 (stereo not drawn) | -4% |
| COc1ccc(C(=O)N/C(=C/c2cccs2)C(=O)NN)cc1OC | 7% |
| CC(C)C1Nc2ccc(C(=O)NCc3ccco3)cc2NC1=O (stereo not drawn) | -17% |
| CCOc1ccc(NC(=O)CCC(=O)N2CCSc3ccccc32)cc1 | -13%&-3% |
| O=C(Nc1ccccc1)c1ccc(=O)[nH]n1 | 8% |
| C[C@H]1CCC[C@@]2(C)CCCC[C@]12O | 0% |

| mol | VDR inhibitor |
| --- | --- |
| COc1cccc2c1c(NC(=O)Nc1ccc(F)cc1F)nn2C | 3% |
| COc1ccc(C(=C(CC(=O)O)C(=O)OC(C)(C)C)c2cc(OC)c(OC)c(OC)c2)cc1OC | -11% |
| CSCCC(NC(=O)c1ccco1)C(=O)N1CC=C(c2ccccc2)CC1 (stereo not drawn) | -3% |
| Cc1ccc(NC(=O)C(CC(=O)O)C2CCCO2)c(C)c1 (stereo not drawn) | 9% |
| COCCCNC(=O)Cn1cc2c(n1)CCCCC2 | 11% |
| CCCCNC(=O)c1ccc(C)c(NC(=O)C2=C(C)OCCS2)c1 | 4% |
| CCCC[C@@H]1C[C@H]1[C@@H](NC(=O)c1cccs1)c1ccc(C(F)(F)F)cc1 | -1% |
| Oc1c(Cl)cc(Cl)cc1C1Nc2ccccc2-n2cccc21 (stereo not drawn) | 20% |
| S=c1nc(-c2ccccc2)n(Cc2cccnc2)c2c1CCCC2 | 5% |
| CCC(=O)N1CCc2cc(S(=O)(=O)N3CCN(c4ccccn4)CC3)ccc21 | -16% |

| mol | VDR inhibitor |
| --- | --- |
| COc1ccc(/C=N/NC(=O)c2nc(-c3ccccc3)n(-c3ccccc3)n2)c(O)c1 | -18% |
| Brc1ccc(-c2cnc3n2CCCC3)cc1 | 3% |
| COCCCC1CCN(C(=O)C2CCC(=O)N(C3CCCC3)C2)CC1 (stereo not drawn) | -9% |
| COCCn1c(=N)c(S(=O)(=O)c2ccc(Br)cc2)cc2c(=O)n3ccccc3nc21 | -2% |
| CS(=O)(=O)c1nc(S(=O)(=O)c2ccc(Cl)cc2)c(NCCN2CCOCC2)s1 | 12% |
| CCc1cccc(CC)c1NC(=O)CN1CC(C)SC1=NC1CCCCC1 (stereo not drawn) | -9% |
| CCOC(=O)c1c(-c2ccc(OC)cc2)oc2ccc(OCc3ccc(C(=O)OC)cc3)cc12 | -9% |
| Cc1[nH]c2c(Cl)cccc2c(=O)c1CN1CCCCCC1 | 24% |
| O=C(COC(=O)c1cc(S(=O)(=O)N2CCOCC2)ccc1O)NCc1ccc2c(c1)OCO2 | -3% |
| COc1ccc(-c2cc(C(F)(F)F)n3nc(C(=O)Nc4cc(C)ccc4C)cc3n2)cc1 | 6% |

| mol | VDR inhibitor |
| --- | --- |
| COc1nc(Nc2ccc(C(C)=O)cc2)nc(OC)n1 | 6% |
| NNC(=O)c1ccc(COCC(F)(F)C(F)F)cc1 | 3% |
| COc1ccc2[nH]c(=O)c(CN(Cc3cccnc3)Cc3nnnn3CC3CCCO3)cc2c1 (stereo not drawn) | 8% |
| CCC(C)NC(=O)C1c2ccccc2C(=O)N1Cc1ccc(OC)cc1OC (stereo not drawn) | 3% |
| CCCCc1cc(=O)oc2cc(OCC(=O)N3C[C@H]4C[C@@H](C3)c3cccc(=O)n3C4)ccc12 | 6% |
| COC(=O)c1ccc(Sc2nnnn2-c2ccccc2)c([N+](=O)[O-])c1 | -2% |
| CC(C)(C)C(=O)NC1CCN(CC(=O)Nc2ccc3c(c2)OCO3)CC1 | 17% |
| Cc1ccc(Cn2nnc(C(=O)Nc3ccc(F)c(F)c3)c2N)cc1 | -10% |
| O=C(OC1CCOC1=O)c1ccc(-c2nc3ccccc3s2)s1 (stereo not drawn) | 1% |
| CN1C(=O)c2ccccc2N(C)C1c1ccccc1Cl (stereo not drawn) | -22% |

Exported as labelled records: 4 of the compounds above.
canonical_smiles: COc1cccc2c1c(NC(=O)Nc1ccc(F)cc1F)nn2C
  VDR inhibitor: 3%
canonical_smiles: COc1ccc(C(=C(CC(=O)O)C(=O)OC(C)(C)C)c2cc(OC)c(OC)c(OC)c2)cc1OC
  VDR inhibitor: -11%
canonical_smiles: CSCCC(NC(=O)c1ccco1)C(=O)N1CC=C(c2ccccc2)CC1 (stereo not drawn)
  VDR inhibitor: -3%
canonical_smiles: Cc1ccc(NC(=O)C(CC(=O)O)C2CCCO2)c(C)c1 (stereo not drawn)
  VDR inhibitor: 9%

Continuation:
| mol | VDR inhibitor |
| --- | --- |
| Cc1ccc(S(=O)(=O)Nc2ccccc2N2CCOCC2)cc1 | -4% |
| CCn1c2c(c(=O)n3ncc(C(=O)Nc4ccc(OC(F)(F)F)cc4)c13)CN(Cc1ccc(OC)cc1)CC2 | -13% |
| O=C(NCCc1ccccc1)c1c(O)c2cccc3c2n(c1=O)CC3 | 15% |
| Cc1ccc(-c2nnc(SCC(=O)Nc3ccc(N4CCOCC4)cc3)o2)cc1 | -2% |
| CC1=C(c2ccc(C)cc2)S(=O)(=O)NC1=NCc1ccccc1Cl | 12% |
| COCC1CCCCN1C(=O)C1CCN(c2nc(-c3ccccc3)nc3c2CCC3)CC1 (stereo not drawn) | -4% |
| CCOC(=O)c1ccc(N2Cc3ccccc3C2=N)cc1 | -9% |
| O=C(NNC(=S)NC(=O)c1cccs1)c1ccc(NC(=O)c2ccccc2)cc1 | -21% |
| S=c1[nH]nc(COc2ccccc2)n1C1CCCCC1 | 16% |
| Cc1nc2nc(CNC(=O)OC(C)(C)C)nn2c(C)c1CCC(=O)Nc1ccc2c(c1)OCO2 | -12% |

| Compound | VDR inhibitor |
| --- | --- |
| O=C(CSc1ccc(Cl)cc1)Nc1ccc(N2CCN(C(=O)c3ccc(Cl)cc3)CC2)cc1 | 11% |
| COc1ccc(S(=O)(=O)Nc2c(C(=O)O)[nH]c3ccccc23)cc1OC | -10% |
| CC1CCN(S(=O)(=O)c2ccc3c(c2)c(=O)c(C(=O)NCCc2ccccc2)cn3C)CC1 | -17% |
| O=C(c1ccccc1)c1ccccc1C(=O)N1CCN(C(=O)c2ccccc2)CC1 | -9% |
| COC(=O)Cc1ccc2c3ccccc3n(C)c2c1 | -8% |
| COc1cc(NC(=O)Cc2nn(C)c(=O)c3ccccc23)cc(OC)c1OC | 2% |
| CCO[C@@H]1OC(C(=O)N2CCN(Cc3ccc4c(c3)OCO4)CC2)=C[C@H](C2CC2)[C@H]1CCCO | -2% |
| CCOc1ccc2nc(NCCNC(=S)NCCCN(C)C)c(C#N)cc2c1 | 6% |
| O=C(NCc1ccccn1)C1CCCCC1 | -18% |
| Cc1c(CCC(=O)O)c(=O)oc2cc3occ(-c4ccc(Br)cc4)c3cc12 | ? |
| COC(=O)CCc1nc2ccccc2nc1OC | -17% |
| CC(=O)Nc1ccc2nc(NS(=O)(=O)c3ccc(C)cc3)sc2c1 | -10% |
| CCn1c(Cl)c(C=O)s/c1=N\S(=O)(=O)c1ccccc1 | 3.2µM* |
| O=C(CN1CCN(C(=O)C2CC2)CC1)Nc1ccc(Cl)cc1F | 5% |
| Cc1oc(-c2ccc(Cl)cc2)nc1CN1CCCC(C(=O)NCc2ccco2)C1 (stereo not drawn) | 9% |
| O=C(CN1CCNCC1)NCCSc1ccc(Cl)cc1 | 16% |
| Cc1ccc2oc(-c3ccc(C)c(NC(=O)c4ccc(-c5ccccc5[N+](=O)[O-])o4)c3)nc2c1 | 0% |
| O=C(N/N=C/C(Br)=C/c1ccccc1)c1cc(-c2ccco2)[nH]n1 | -7% |
| COC(=O)c1ccccc1NC(=O)CCn1nc(C)c2c(C)n(-c3ccccc3)nc2c1=O | 9% |
| CC(C)OC(=O)c1nnc(Cc2ccc(Cl)cc2)o1 | -3% |
| CCn1cc(C(=O)N2CCN(c3ccccn3)CC2)c(=O)c2cc(S(=O)(=O)N(C)C3CCCCC3)ccc21 | 16% |
| CCCCN1CCCCC1C(=O)Nc1c(C)cc(C)cc1C (stereo not drawn) | -7% |
| CCOC(=O)c1ccc(N2CCN(c3cccc(Cl)c3)CC2)c(NC(=O)Nc2ccc(Cl)cc2)c1 | 19% |
| COc1cc(C2OCC3C(c4ccc(OC5OC(CO)C(O)C(O)C5O)c(OC)c4)OCC23)ccc1O (stereo not drawn) | -6% |
| CC(=O)Oc1ccccc1C(=O)C=Cc1cccc([N+](=O)[O-])c1 | 22µM* |
| COc1ccc(CCNC(=O)c2cc3c(=O)oc4ccc(C)cc4c3s2)cc1OC | 0% |
| CCC(=O)N(Cc1ccc(C)cc1)Cc1cc2cc3c(cc2[nH]c1=O)OCO3 | 10% |
| O=C(CSc1ccc(Cl)cc1)NCc1ccco1 | -9% |
| COCC(=O)Nc1cc(C)cn(Cc2ccccc2Cl)c1=O | -5% |
| CCOc1ccc(NC(=O)CCN2CCN(S(=O)(=O)c3ccc(OC)cc3)CC2)cc1 | 11% |

| Compound | VDR inhibitor |
| --- | --- |
| O=C1CN=C(Nc2ccccc2Cl)N1c1ccccc1 | 1% |
| CCC1S/C(=C(\C#N)C(N)=O)N(c2ccc(F)cc2)C1=O (stereo not drawn) | -1% |
| Cc1ccc(C(=O)N2CCN(c3cnn(C)c(=O)c3Cl)CC2)cc1 | 22% |
| CCOc1ccc(NC(=O)CSc2ccc(-c3ccco3)nn2)cc1 | 4% |
| Fc1ccc(N2N=C(c3cccs3)CC2c2ccco2)c(F)c1 (stereo not drawn) | 13% |
| C=CCn1c(C)cc(-c2csc(NC)n2)c1C | 12% |
| Cc1cccc(C)c1NC(=O)N1CCCC1C(=O)Nc1ccc(-n2cnnn2)cc1 (stereo not drawn) | 3% |
| COc1ccc(N(C(C)=O)S(=O)(=O)c2cccs2)cc1 | 5% |
| N#Cc1ccsc1NC(=O)c1cccc(-n2cnnn2)c1 | -9% |
| COc1cc(SC#N)ccc1N=Cc1c(C)[nH]n(-c2cccc3ccccc23)c1=O | ? |
| Cc1ccc(NC(=O)CC2S/C(=N/N=C/c3c[nH]c4ccccc34)NC2=O)cc1 (stereo not drawn) | -13% |
| COc1cccc(NC(=O)Cn2c(=O)n(CCC(=O)NCc3ccco3)c(=O)c3ccccc32)c1 | -16% |
| Cn1c(N)c(C(=O)COC(=O)Cc2ccc(Br)cc2)c(=O)n(C)c1=O | -3% |
| O=S(=O)(NC1CCCCCC1)c1ccc(Br)s1 | 8% |
| COc1ccc(CNC(=O)C(c2ccco2)N(C(=O)c2ccccn2)c2ccccc2)cc1 (stereo not drawn) | 0% |
| CC(=C1C(=O)c2ccccc2C1=O)N1CCN(C/C=C/c2ccccc2)CC1 | ? |
| O=C(Nc1nc(-c2cccc3ccccc23)cs1)c1ccc2c(c1)S(=O)(=O)c1ccccc1C2=O | -2% |
| O=C(NCCc1ccccc1)C1CCN(S(=O)(=O)c2cccs2)CC1 | 5% |
| COc1ccc(CCNC(=O)Cn2c(=O)n(Cc3ccco3)c(=O)c3ccc(Cl)cc32)cc1OC | -14% |
| CCOc1cc(NC(=O)c2ccco2)c(OCC)cc1NC(=O)CCc1ccccc1OC | 7% |
| COc1ccc([N+](=O)[O-])cc1NC(=O)COC(=O)c1ccccn1 | -8% |
| CCOC(=O)N1CCN(Cc2nc3cc(NC(=O)c4cccc(C)c4)ccc3n2C(C)C)CC1 | 7% |
| O=C(CSc1nc2c(oc3ccccc32)c(=O)n1CC1CCCO1)NCc1ccccc1 (stereo not drawn) | -7% |
| C=Cc1ccc(CSc2nnc(C)n3c2cc2occc23)cc1 | -1% |
| Cc1ccc(OCCn2c(C3CC(=O)N(Cc4ccccc4)C3)nc3ccccc32)cc1 (stereo not drawn) | 3% |
| CC(NS(=O)(=O)c1ccc2ccccc2c1)c1ccccn1 (stereo not drawn) | -7% |
| O=C(COc1ccc(Br)cc1)Nc1ccc(C(=O)OC2CCCCC2)cc1 | -2% |
| Cc1cccc(C(C)C)c1NC(=O)CSc1nncn1C | -4% |
| O=C(NNS(=O)(=O)c1ccc(F)cc1)c1ccccc1F | 16% |
| CCn1c(SCC(=O)N/N=C/c2cc(OC)c(OC)c(OC)c2)nc2ccccc21 | -8% |

| Compound | VDR inhibitor |
| --- | --- |
| Cc1cccc(OCc2nnc(SCC(=O)N3c4ccccc4Sc4ccc(Cl)cc43)o2)c1 | 14% |
| CC1Cc2ccccc2N1C(=O)c1ccc2snnc2c1 (stereo not drawn) | -16% |
| CCc1ccccc1NC(=O)CNC(=O)c1cccc(S(=O)(=O)N2CCN(Cc3ccccc3)CC2)c1 | -22% |
| Cc1ccc(S(=O)(=O)Cc2ccc(C(=O)N3CCN(c4ccccn4)CC3)o2)cc1 | -8% |
| Cc1ccsc1C(=O)N(c1nc2ccccc2s1)c1c(C)cccc1C | -10% |
| Cc1ccc(C)c(OCCC(=O)NNC(=O)c2ccncc2)c1 | -4% |
| CCNc1nc(NCC)n2c(SCC(=O)c3ccc(C(C)C)cc3)nnc2n1 | ? |
| Cc1c(C(C)C)c(=O)n(-c2ccc(S(=O)(=O)NCc3ccccc3)cc2)n1C | 6% |
| NCCc1nnc(SCC(N)=O)o1 | -2% |
| O=C(CN1CCOCC1)NCCNC(=O)CN1CCOCC1 | 10% |
| CCOc1ccc(C(=O)Nc2cccc(-c3cc4ccccc4oc3=O)c2)cc1[N+](=O)[O-] | 5% |
| COc1cc(OC)cc(C(=O)Nc2ccc3nc4n(c(=O)c3c2)CCCC4)c1 | -14% |
| CCOC(=O)c1c(-c2ccc(C)cc2)csc1NC(=O)c1cc(=O)c2cc(Cl)ccc2o1 | 0% |
| CN(C)C(=O)N1CCN(C(=O)N(C)C)CC1 | 14% |
| C=CCn1c(-c2ccncc2)n[nH]c1=S | 4% |
| O=C(c1ccc2c(c1)OCO2)N(CC1CCCO1)C1(C(=O)NC2CCCCC2)CCCCC1 (stereo not drawn) | -8% |

Screening results deposited in PubChem by National Center for Advancing Translational Sciences (NCATS).
